Compound activity deposited in PubChem by several laboratories.
MT1-MMP act inh = MT1-MMP (human) activation inhibition. P50281. HT1080 RFP-PRO-GFP cells, GFP/RFP ratio fluorescence, overnight; percent of plate control window, DMSO zero. GFP/RFP ratio change, % at 20 µM. 0.061% of 360,000 active. AID 651647;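 active = GFP/RFP ratio change of at least 30% with cell ATP level not reduced by more than half and red fluorescence within 50% of control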; also: strong numbers were not always called active
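Compound: 20 µM single dose, 1% DMSO / System: HT1080 RFP-PRO-GFP cells / Controls: DMSO and RFP-L50D-GFP cell wells / Read-out basis: GFP/RFP fluorescence ratio / Schedule: overnight compound exposure at 37 °C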
CSC inhib = cancer stem cell inhibition; inhibition, % at 7.5 µM; cancer stem cell-like cells viability, luminescence; AID 2717; 1.1% of 300,000 active;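 active = mean at 75% or more and at least half the replicates too; inconclusive = mean and replicates disagree; tested in HMLE shEcad cells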;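 also: 0% = median of negative and 100% = median of positive control wells; the first replicate is given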
Rce1 inhib = yeast Ras-converting enzyme inhibition. 0.27% of 290,000 active. Q03530. yeast membranes, quenched prenylated peptide cleavage fluorescence. AID 2563. calls only;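 active = fall in fluorescence gain of 50% or more versus controls, with final raw signal at or below 3038400; inconclusive = same 50% fall but final raw signal above 3038400; inactive = fall in fluorescence gain under 50%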;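 also: plate controls were neutral control wells for no effect and wells lacking membranes for full effect; tested at 10 µM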
Target sequence (Q03530 whole entry, looked up): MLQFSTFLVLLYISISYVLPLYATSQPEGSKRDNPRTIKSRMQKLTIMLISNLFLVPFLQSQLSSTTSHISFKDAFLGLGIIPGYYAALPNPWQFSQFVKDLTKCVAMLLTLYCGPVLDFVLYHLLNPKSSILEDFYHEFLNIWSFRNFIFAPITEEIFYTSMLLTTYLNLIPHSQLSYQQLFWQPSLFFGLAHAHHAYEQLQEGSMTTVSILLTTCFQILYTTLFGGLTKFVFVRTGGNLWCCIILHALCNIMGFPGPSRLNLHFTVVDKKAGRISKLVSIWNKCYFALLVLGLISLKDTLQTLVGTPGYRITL
eIF4H inh = inhibitors of RNA binding by human eIF4H; inhibition, % at 35 µM; 0.94% of 290,000 active; eIF4H fluorescence polarization binding assay;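 active = 50% or more with normal probe brightness, or confirmed in later tests; inconclusive = above 50% with abnormal brightness, or retests that disagree; inactive = below 50% or failed in later tests; about a fifth of its hits are not listed in these tables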;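 also: calls also rest on retests at 20 µM and on dose response follow-up; 0% = protein and probe with vehicle and 100% = probe without protein; strong numbers were not always called active; many hits fall short of the cut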
PABP FP inh = PABP-poly(A) binding inhibition | P11940 | PABP-poly(A) RNA binding, fluorescence polarization | inhibition, % at 35 µM | 1% of 290,000 active | AID 2014;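 active = 50% or more with normal probe brightness, or confirmed in later tests; inconclusive = above 50% with abnormal brightness, or retests that disagree; inactive = below 50% or failed in later tests; about a fifth of its hits are not listed in these tables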;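 also: calls also rest on retests at 20 µM and on dose response follow-up; controls were probe without protein and protein plus probe with vehicle; some compounds called inactive have numbers as strong as hits; many hits fall short of the cut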
Target sequence (P11940 whole entry, looked up): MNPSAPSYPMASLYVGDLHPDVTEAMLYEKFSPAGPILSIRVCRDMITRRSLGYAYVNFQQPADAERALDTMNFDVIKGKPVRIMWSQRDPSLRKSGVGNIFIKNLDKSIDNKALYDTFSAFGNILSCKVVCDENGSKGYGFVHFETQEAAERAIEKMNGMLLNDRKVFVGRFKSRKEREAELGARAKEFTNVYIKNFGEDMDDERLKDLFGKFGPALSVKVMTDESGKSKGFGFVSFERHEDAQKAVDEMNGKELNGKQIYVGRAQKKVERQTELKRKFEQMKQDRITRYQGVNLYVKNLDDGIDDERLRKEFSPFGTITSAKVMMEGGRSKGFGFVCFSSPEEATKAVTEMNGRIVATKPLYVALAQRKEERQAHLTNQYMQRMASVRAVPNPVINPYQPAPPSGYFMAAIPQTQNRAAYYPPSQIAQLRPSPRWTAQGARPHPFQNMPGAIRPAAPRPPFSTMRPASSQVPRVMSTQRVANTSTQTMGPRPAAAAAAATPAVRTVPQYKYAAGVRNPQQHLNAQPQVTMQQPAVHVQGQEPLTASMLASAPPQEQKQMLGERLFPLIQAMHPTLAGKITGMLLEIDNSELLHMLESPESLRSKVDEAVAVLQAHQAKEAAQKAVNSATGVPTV
Env fusion inh = HIV envelope-mediated fusion inhibition; HeLa-JRFL Env/CEM21 cell fusion, luciferase; inhibition, % at 12.3 µM; 1.1% of 360,000 active; AID 651610;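 active = mean replicate inhibition score of at least 50 and every replicate individually at or above 50; inconclusive = only one of the two criteria met; inactive = mean below 50 and not all replicates reaching 50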;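 also: 0% = plate neutral controls and 100% = maraviroc near 300 nM; one replicate is shown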
UUG fidelity = modulators of start codon recognition fidelity in yeast; S. cerevisiae UUG-firefly luciferase reporter, luminescence/redox ratio; activity score, % at 18.7 µM; 0.13% of 350,000 active; AID 602363;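 active = replicate mean at a twofold rise or more, about +100% in these data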;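 also: firefly luciferase made from a UUG start codon reports start codon fidelity; reporter light over untreated wells divided by growth signal over untreated wells; some hits fall short of that in this replicate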
eIF4H inh retest = second read-out of eIF4H inh, no call of its own (marks repeat the call); inhibition, %; compound at 20 µM; confirmation average;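 mean of two retest wells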
PABP FP inh retest = further read-out of PABP FP inh, marked with its call; inhibition, %; compound at 20 µM; confirmation repeats;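 mean of two retest wells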
MT1-MMP act inh RFP = further read-out of MT1-MMP act inh, marked with its call; RFP signal change, %; measured here: RFP expression control read;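 0 = vehicle wells; hits needed this value within 50% of zero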
Active calls of the source: *; i = inactive; ? = inconclusive; / = not tested or not shown.

SMILES | MT1-MMP act inh | MT1-MMP act inh RFP | CSC inhib | Rce1 inhib | eIF4H inh | PABP FP inh | Env fusion inh | UUG fidelity | others
CC(C)(C)OCC1CO1 (stereo not given) | 1 | 7 | -7 | / | / | / | / | -8
CCOC(=O)CC1CCCCN1C(=O)CCCn1nnnc1CN1CCC(C)CC1 (stereo not given) | -3 | -1 | 12 | i | -15 | -22 | 3 | -9
OC(COc1c(Cl)cc(Cl)cc1Cl)CN1CCCCC1 (stereo not given) | 4 | 1 | / | i | 5 | 3 | 17 | /
C=CCOc1ccccc1CN1CCC(CO)(CCOc2ccccc2)CC1 | 2 | 0 | 5 | i | 5 | -7 | 16 | -4
COCCN1CCN(Cc2cn(C)nc2-c2cccc(Cl)c2)CC1 | -1 | 1 | 11 | i | -4 | 1 | -11 | -12
O=C(Nc1ccc2c(c1)C(=O)N(C1CCCCC1)C2=O)C1CCCO1 (stereo not given) | 2 | -3 | 10 | i | -4 | -1 | / | -8
CCc1ccc(C2CC(c3ccco3)=NN2S(C)(=O)=O)cc1 (stereo not given) | -3 | -3 | 1 | / | -1 | 8 | / | /
Cc1cccc(-c2ccc3ncnc(NCc4cccnc4)c3c2)c1 | 6 | 1 | 4 | / | / | / | -1 | 2
O=C1CC[C@@]23CCCN2C(=O)CCCC3C1 (stereo not given in full) | 0 | 4 | / | / | / | / | -7 | -4
Cc1ccc(CNC(=O)C(=O)NCCC2CCCCN2S(=O)(=O)c2cccs2)cc1 (stereo not given) | 5 | -2 | -13 | i | / | / | -12 | -3
COC(=O)C1CC2=C(CC(C)(C)CC2=O)N(c2ccccc2)C1=O (stereo not given) | 1 | 5 | / | / | / | / | ? | -4
Cc1cnc(NC(=O)CSc2ncn(-c3ccccc3)n2)s1 | 3 | 4 | 2 | i | -5 | 20 | -1 | -3
O=C(O)C1CCCCC1C(=O)OCCCCOC(=O)C1CCCCC1C(=O)O (stereo not given) | 1 | -3 | -1 | i | -3 | 8 | -99 | 8
COc1cccc(NC(=O)CC(=O)c2ccc([N+](=O)[O-])cc2)c1 | -1 | 1 | 19 | i | -12 | -17 | -34 | -27
O=C1c2ccccc2S(=O)(=O)c2cc(N3CCC(C(=O)N4CCCCC4)CC3)ccc21 | / | / | 30 | i | / | / | 3 | /
COc1ccccc1OCc1ccc(C(=O)N2N=C(C(F)F)CC2(O)C(F)F)o1 (stereo not given) | -1 | 1 | -11 | i | -9 | -16 | 17 | /
COc1cccc(-n2nc(C(C)=O)c(C#N)c2-c2ccco2)c1 | -5 | 1 | -7 | i | -6 | -10 | -7 | /
CN1CCN(C(=O)c2ccc3c(c2)N(Cc2ccccc2F)C(=O)c2ccccc2S3=O)CC1 (stereo not given) | -4 | 4 | -1 | i | -18 | -7 | -13 | -3
Cc1nc2ccccc2n1CC(=O)c1ccc(O)c(O)c1 | 4 | -1 | 0 | / | / | / | ? | 21
CSCCC(=O)N1CCCC(N2CCN(c3cccc(C(F)(F)F)c3)CC2)C1 (stereo not given) | 2 | -1 | -4 | i | 1 | -1 | 8 | -24

By substructure, those above containing fluorine.
SMILES | MT1-MMP act inh | MT1-MMP act inh RFP | CSC inhib | Rce1 inhib | eIF4H inh | PABP FP inh | Env fusion inh | UUG fidelity | others
COc1ccccc1OCc1ccc(C(=O)N2N=C(C(F)F)CC2(O)C(F)F)o1 (stereo not given) | -1 | 1 | -11 | i | -9 | -16 | 17 | /
CN1CCN(C(=O)c2ccc3c(c2)N(Cc2ccccc2F)C(=O)c2ccccc2S3=O)CC1 (stereo not given) | -4 | 4 | -1 | i | -18 | -7 | -13 | -3
CSCCC(=O)N1CCCC(N2CCN(c3cccc(C(F)(F)F)c3)CC2)C1 (stereo not given) | 2 | -1 | -4 | i | 1 | -1 | 8 | -24

(next part)
SMILES | MT1-MMP act inh | MT1-MMP act inh RFP | CSC inhib | Rce1 inhib | eIF4H inh | PABP FP inh | Env fusion inh | UUG fidelity | others
COc1ccc(C)cc1NS(=O)(=O)c1ccc2c(c1)oc(=O)n2C | 1 | -2 | 7 | i | 7 | 0 | -3 | -6
O=C(Nc1ccccc1)c1ccc(Br)c(S(=O)(=O)Nc2ccccn2)c1 | 2 | -4 | -10 | i | 5 | 3 | -3 | -12
CCn1c(SCC(=O)c2cccs2)nnc1-c1ccco1 | -2 | -5 | -15 | i | 14 | 16 | -30 | /
O=C(O)/C=C/C(O)c1ccc(Cl)cc1 (stereo not given) | 0 | 1 | 0 | / | / | / | -12 | -25
Cc1ccc(NC(=O)c2cc(-c3cccs3)on2)cc1 | 1 | 2 | 9 | i | -2 | 1 | -39 | -12
COCCCNC(=S)NC1CC2CCCC(C1)N2Cc1ccco1 (stereo not given) | 2 | 3 | -21 | i | -1 | -2 | -1 | -11
CCC(C(=O)NC1CCCC1)N(Cc1ccco1)C(=O)CNS(=O)(=O)c1ccccc1 (stereo not given) | 1 | 2 | -5 | i | 8 | 10 | 15 | 21
COc1cc(Cn2c3ccc(NC(=S)NCc4ccc(C)cc4)cc3c(=O)n2C)ccc1F | -1 | -11 | / | / | / | / | 17 | -16
C=CC[C@@H](CC(=O)N[C@H](CO)Cc1ccccc1)C(=O)N[C@H](COC(=O)[C@@H](CC=C)Cc1ccc(F)cc1)Cc1ccccc1 | 1 | -9 | -11 | / | / | / | -75 | -14
COc1nnc(OC)c2ccccc12 | -1 | 0 | -3 | i | 5 | -11 | / | -27
CS(=O)(=O)N(CC(N)=O)c1cccc(Br)c1 | 5 | 4 | 18 | i | 6 | -8 | / | /
COc1cccc(Cn2c(=S)[nH]c3ccc(N4CCOCC4)cc3c2=O)c1 | 17 | -7 | 2 | i | 3 | 15 | -48 | -17
O=C(C1CCC(=O)N1Cc1cccnc1)N1CCN(c2ccc(F)cc2)CC1 (stereo not given) | 2 | 9 | -9 | i | 1 | 0 | -18 | -13
CCCS(=O)(=O)NCCc1cc2c(OC)ccc(OC)c2[nH]c1=O | 5 | 6 | -9 | i | -6 | -10 | / | /
CCC(=O)Nc1ccc(NC(=S)NC(=O)c2oc3ccccc3c2C)cc1 | 2 | -5 | -8 | i | -6 | -2 | / | -10
CCN(CC)S(=O)(=O)c1cccc(-c2nnc(SCC(=O)c3cc(C)n(C)c3C)o2)c1 | -4 | -9 | 16 | i | 100 | 125* | / | -15 | eIF4H inh retest=43;PABP FP inh retest=90*
COc1cccc(OC)c1OCCCCN1CCCC1 | 2 | 2 | -15 | i | 1 | 8 | / | -4
CCOc1c(Cl)cc(CNc2ccc(S(N)(=O)=O)cc2)cc1OC | 4 | -4 | 5 | i | 6 | -2 | / | /
NC(=O)CC(NC(=O)Cc1ccc(Cl)cc1)c1ccc(NC2CC3CCC2C3)c([N+](=O)[O-])c1 (stereo not given) | 7 | 5 | 19 | i | -2 | -7 | 6 | -5
O=C(Nc1nc2ccccc2n1CCN1CCCCC1)c1ccco1 | 0 | 5 | 8 | i | 6 | 4 | / | -14
COC(C[C@H]1O[C@H]1[C@H](O)[C@H](C)OCc1ccccc1)OC | 0 | 5 | / | i | 4 | 10 | 4 | -7
CCN1CCN(c2ccc(NC(=O)c3ccc4c(c3)[nH]c(=O)n4Cc3ccc(OC)cc3)cc2)CC1 | 7 | -2 | 62 | i | -8 | -16 | -98 | /
Cc1cc(NC(=O)CCCC(=O)N(CC(=O)NC2CCCCC2)c2ccccc2)no1 | 1 | 2 | -2 | i | -3 | 0 | -32 | 2
CCN1C(=O)c2cccc3c(N)ccc(c23)C1=O | -83 | -3 | 3 | i | ? | ? | -5 | 3
FC(F)(F)c1cnc(N2CCN(C(=S)NCc3ccccc3)CC2)c(Cl)c1 | 2 | -8 | 23 | i | -2 | -6 | 15 | /
CCC(=O)Nc1ccc(C(=O)Cn2nc(C(=O)O)c3ccccc3c2=O)cc1 | / | / | / | / | 67 | 13 | -8 | / | eIF4H inh retest=1;PABP FP inh retest=3
Cc1ccccc1Nc1ccc2nonc2c1[N+](=O)[O-] | 2 | 0 | 5 | i | -5 | 3 | 8 | -13
CCOC(=O)c1nnc(-c2ccccc2)nc1NCc1ccc(Cl)cc1 | -3 | -2 | 6 | i | -10 | -9 | -23 | -14
CCCC(=O)Nc1ccc2oc(-c3cncc(Br)c3)nc2c1 | -3 | -2 | 0 | i | 4 | -5 | -48 | 3
Cc1cc(C)c(C(=O)NC2CC(C)(C)Cc3c2cnn3-c2cccc(F)c2)[nH]1 (stereo not given) | -8 | -9 | / | i | 9 | -7 | / | 7
O=[N+]([O-])c1ccc2nc(N3CCCC3)sc2c1 | 2 | -4 | -2 | i | 34 | 50* | -72 | -12 | eIF4H inh retest=-7;PABP FP inh retest=101*
CCOC(=O)c1cnc(SCC(=O)Nc2cccc(OC)c2)nc1N | 4 | -2 | 2 | i | -3 | -8 | 12 | 8
CN(C)c1ccc2c3c(ccc(N(C)C)c13)C(=O)OC2 | -1 | 1 | -9 | i | 34 | 29 | 11 | -21
Cc1cc(C(=O)Nc2ccc3c(c2)OCO3)no1 | 3 | 7 | -7 | i | 9 | 6 | -22 | -18
Cc1ccccc1-n1nc2c(c1NC(=O)C1CCCC1)CS(=O)(=O)C2 | -8 | 2 | -4 | i | -4 | -6 | -4 | -12
COc1ccc(CC(=O)OCC(=O)Nc2c(C)n(C)n(-c3ccccc3)c2=O)cc1 | 1 | 4 | -2 | i | -3 | 0 | / | -6
COc1ccccc1-c1nnc(NC(=O)CCS(=O)(=O)c2ccccc2)o1 | -4 | 3 | -9 | i | 1 | -16 | / | -9
NC(=O)CSc1nnc(-c2ccco2)n1-c1ccc(F)cc1 | 0 | 5 | / | / | / | / | -15 | -16
CCNC(=O)CN(c1ccc(Cl)cc1)S(=O)(=O)c1ccccc1 | 1 | -2 | -9 | i | -4 | -6 | -46 | -19
Cn1ccc(C(=O)Oc2ccc(C(=O)Nc3ccc(F)cc3F)cc2)n1 | 0 | 1 | / | i | -6 | 8 | -25 | -10
COc1ccc(CN(C)C(=O)c2cccc(C(=O)N(C)Cc3ccc(OC)cc3)c2)cc1 | 0 | -9 | -19 | i | 2 | -4 | 22 | 4
CCn1c(SCC(=O)NC2CCCCC2)nnc1-c1cccnc1 | 1 | 4 | -5 | i | -3 | -4 | -28 | -6
Cc1cc2cc(CNC(=O)CC(C)C)ccc2n1C | 23 | 17 | 1 | i | 28 | 12 | -68 | -1
O=C(CSc1nc2c(sc3ccccc32)c(=O)n1Cc1ccco1)NCC1CCCO1 (stereo not given) | 1 | -16 | 6 | i | -2 | 9 | -90 | -15
C=CCn1c(=N)c(C(=O)NCCCOC)cc2c(=O)n3cc(C)ccc3nc21 | 3 | 6 | -7 | ? | -2 | -5 | -6 | -9
CC(=O)N(C)c1ccc(NC(=O)Cc2cccc3ccccc23)cc1 | 3 | -2 | -7 | i | / | / | -9 | 4
O=C(CN1C(=O)c2ccccc2C1=O)NNC1=NS(=O)(=O)c2ccccc21 | 8 | 9 | -8 | i | -9 | -2 | 4 | -8
Cc1ccccc1C(=O)NC1CC(C)(C)NC(C)(C)C1 | 3 | 6 | -18 | i | / | / | / | -23
Cc1cccc(C)c1-n1c(C)nn(CC2CC2)c1=O | 4 | 5 | -5 | i | 5 | -10 | -4 | -14
N#C/C(=C\c1ccc[nH]1)C(=O)Nc1ccccc1[N+](=O)[O-] | 2 | 4 | -6 | i | 79* | 57* | -266 | 0
c1ccc2c(-n3cccn3)cccc2c1 | 5 | 2 | -4 | / | -1 | 1 | / | -14
COc1cccc2oc(CCc3ccccc3)cc(=O)c12 | 4 | 3 | / | / | / | / | -32 | -14
N#Cc1ccc(CSc2ccccn2)c(Cl)c1 | 0 | -3 | -1 | i | -5 | -1 | -24 | -15
